Source: PubChem (several laboratories)
HSV replic up: enhancers of HSV replication in host cells, fold increase, host cell viability | 0.005% of 220,000 active | HSV replication augmentation in cells | maximum fold increase;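 active = peak rise of 1.5-fold or more in the series; tested in PC3 cells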;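 also: first round at 10 µM; read as green reporter fluorescence; hits show the peak of a series up to 25 µM; 1 = signal of infected wells without compound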
PKD1 kinase inh: inhibitors of human PKD1 kinase, biochemical, fluorescence polarization; 0.056% of 200,000 active; Serine/threonine-protein kinase D1 (Homo sapiens), Q15139; PKD1 kinase fluorescence polarization assay; inhibition, %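 (about 10 µM by stock and volumes)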;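 active = inhibition of 50% or more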;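 also: controls were vehicle for no effect and a reference inhibitor for full effect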
INS promoter inh: inhibitors of insulin promoter-driven GFP, primary screen, imaging, TRM-6 cells (human fetal islet line), eGFP reporter, cell count | reporter expression induced with tamoxifen | AID 1273, 2008 | 0.9% of 130,000 active | inhibition, % at 2 µM;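 active = inhibition above the mean plus 3 SD, with well images judged a real hit on visual review, cut at about 60% in these data, passing the limit was not always enough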
GALR2 ag: GALR2 receptor agonists, primary screen, cell-based; GALR2-expressing cells, agonist activation read-out; Galanin receptor type 2 (Homo sapiens), O43603; 0.48% of 140,000 active; activation, %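 (tested at 5 µM)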;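 active = above mean plus 3 SD of all compounds, about 5% in these data, not always enough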;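 also: 0% = vehicle buffer wells and 100% = reference agonist at full effect; tested in CHO reporter cells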
Target sequence (O43603 whole entry, looked up): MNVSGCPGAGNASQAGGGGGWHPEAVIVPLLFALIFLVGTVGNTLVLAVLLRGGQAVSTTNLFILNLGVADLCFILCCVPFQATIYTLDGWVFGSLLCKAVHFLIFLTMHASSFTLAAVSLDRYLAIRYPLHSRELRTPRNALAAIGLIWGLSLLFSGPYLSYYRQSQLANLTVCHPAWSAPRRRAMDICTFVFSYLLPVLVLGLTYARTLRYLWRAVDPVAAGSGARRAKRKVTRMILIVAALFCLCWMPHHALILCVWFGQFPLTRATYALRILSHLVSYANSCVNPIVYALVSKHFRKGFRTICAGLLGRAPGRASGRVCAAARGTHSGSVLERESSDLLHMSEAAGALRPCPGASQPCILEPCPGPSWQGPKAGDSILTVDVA
RGS16-Gao: modulators of RGS16 binding to Galphao, primary screen, biochemical, human proteins, multiplexed bead flow cytometry; 0.38% of 220,000 active; binding response (% of control), % at 10 µM; Regulator of G-protein signaling 16 (Homo sapiens) + Guanine nucleotide-binding protein …; bead-based flow cytometry RGS16-Galphao binding, fluorescence; actives lie on both sides;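 active = below 25% or above 175%, edge rows of some plates excepted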;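 also: Galphao activated by GDP with aluminum fluoride before binding; 100% = wells without compound and 0% = beads without RGS; some results beyond the cut were filed as inactive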
Target sequence (O15492 whole entry, looked up): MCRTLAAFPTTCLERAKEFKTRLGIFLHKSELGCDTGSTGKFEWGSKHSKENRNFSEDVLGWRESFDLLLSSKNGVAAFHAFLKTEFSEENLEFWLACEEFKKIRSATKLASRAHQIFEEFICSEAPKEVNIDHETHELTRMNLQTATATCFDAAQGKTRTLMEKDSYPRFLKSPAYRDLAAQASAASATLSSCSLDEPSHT
Target sequence (P09471 whole entry, looked up): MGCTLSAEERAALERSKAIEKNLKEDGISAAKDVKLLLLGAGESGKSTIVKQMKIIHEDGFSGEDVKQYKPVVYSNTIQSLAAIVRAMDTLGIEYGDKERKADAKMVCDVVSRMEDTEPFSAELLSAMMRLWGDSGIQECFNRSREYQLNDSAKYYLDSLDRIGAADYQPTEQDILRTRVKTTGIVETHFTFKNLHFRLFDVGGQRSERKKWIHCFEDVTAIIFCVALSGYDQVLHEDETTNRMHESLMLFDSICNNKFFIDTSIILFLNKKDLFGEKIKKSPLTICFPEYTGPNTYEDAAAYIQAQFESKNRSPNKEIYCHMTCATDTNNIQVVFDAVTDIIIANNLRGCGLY
INS promoter inh cell count: recorded beside INS promoter inh, whose call it bears; normalized cell count, %; measured here: cell count, toxicity; reference of the scale not given here;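 cells exposed to compound for 48 h; stained nuclei by imaging scaled within each plate; lower means fewer cells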
HSV replic up primary fold: also measured in HSV replic up; calls as there; fold increase; compound at 10 µM; measured here: primary screen fold increase 10 uM; tested in PC3 cells;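 GFP signal in the first replicate; 1 = infected wells without compound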
An asterisk follows results filed as active.

A first look:
For O=C(CSc1nnc(-c2ccncc2)n1-c1ccc(Cl)cc1)NCc1cccs1 the results were HSV replic up inactive, PKD1 kinase inh -6, INS promoter inh 8, GALR2 ag -1.4, RGS16-Gao 101, INS promoter inh cell count 39 and HSV replic up primary fold 1.
COc1ccc(S(=O)(=O)NC2CCCCC2)cc1-n1cnnn1 was read as HSV replic up inactive, PKD1 kinase inh -5, RGS16-Gao 100 and HSV replic up primary fold 1.
For CC(=O)Nc1ccc(OCCCNC(=O)c2c(-c3ccccc3)noc2C)cc1 the results were HSV replic up inactive, RGS16-Gao 92 and HSV replic up primary fold 1.1.
For COc1ccc(CN2CCNC(=O)C2CC(=O)N(C)Cc2ccon2)c(OC)c1 (stereo unspecified) the results were HSV replic up inactive, PKD1 kinase inh 2, INS promoter inh 29, RGS16-Gao 103, INS promoter inh cell count 100 and HSV replic up primary fold 0.83.
Screening Cc1cc(C(=O)O/N=C(\N)c2ccc(C(C)(C)C)cc2)no1 returned HSV replic up inactive, RGS16-Gao 105 and HSV replic up primary fold 1.1.
`O=C(NC(NC(=S)Nc1ccc(Cl)c(Cl)c1)C(Cl)(Cl)Cl)c1ccco1` (stereo unspecified) gave HSV replic up inactive, PKD1 kinase inh -16, INS promoter inh 15, GALR2 ag -2.0, RGS16-Gao 119, INS promoter inh cell count 80 and HSV replic up primary fold 1.1.
Screening COc1ccc(-n2c(SCCC#N)nnc2-c2cc(Cl)ccc2OC)cc1Cl returned HSV replic up inactive, PKD1 kinase inh 7, GALR2 ag -0.4, RGS16-Gao 100 and HSV replic up primary fold 0.68.
`CC(C)Cn1c(N)c(C(=O)COC(=O)[C@@H]2CCCN2C(=O)c2cccs2)c(=O)n(C)c1=O` gave HSV replic up inactive, PKD1 kinase inh -2, RGS16-Gao 97 and HSV replic up primary fold 0.94.
`COc1ccc(N/C(N)=N/c2nc(CSc3nnc(C)s3)cc(=O)[nH]2)cc1` gave HSV replic up inactive, PKD1 kinase inh 5, RGS16-Gao 101 and HSV replic up primary fold 0.65.

Main list, from the first entry:
For O=C(CSc1nnc(-c2ccncc2)n1-c1ccc(Cl)cc1)NCc1cccs1 the results were HSV replic up inactive, PKD1 kinase inh -6, INS promoter inh 8, GALR2 ag -1.4, RGS16-Gao 101, INS promoter inh cell count 39 and HSV replic up primary fold 1.
COc1ccc(S(=O)(=O)NC2CCCCC2)cc1-n1cnnn1 was read as HSV replic up inactive, PKD1 kinase inh -5, RGS16-Gao 100 and HSV replic up primary fold 1.
For CC(=O)Nc1ccc(OCCCNC(=O)c2c(-c3ccccc3)noc2C)cc1 the results were HSV replic up inactive, RGS16-Gao 92 and HSV replic up primary fold 1.1.
For COc1ccc(CN2CCNC(=O)C2CC(=O)N(C)Cc2ccon2)c(OC)c1 (stereo unspecified) the results were HSV replic up inactive, PKD1 kinase inh 2, INS promoter inh 29, RGS16-Gao 103, INS promoter inh cell count 100 and HSV replic up primary fold 0.83.
Screening Cc1cc(C(=O)O/N=C(\N)c2ccc(C(C)(C)C)cc2)no1 returned HSV replic up inactive, RGS16-Gao 105 and HSV replic up primary fold 1.1.
`O=C(NC(NC(=S)Nc1ccc(Cl)c(Cl)c1)C(Cl)(Cl)Cl)c1ccco1` (stereo unspecified) gave HSV replic up inactive, PKD1 kinase inh -16, INS promoter inh 15, GALR2 ag -2.0, RGS16-Gao 119, INS promoter inh cell count 80 and HSV replic up primary fold 1.1.
Screening COc1ccc(-n2c(SCCC#N)nnc2-c2cc(Cl)ccc2OC)cc1Cl returned HSV replic up inactive, PKD1 kinase inh 7, GALR2 ag -0.4, RGS16-Gao 100 and HSV replic up primary fold 0.68.
`CC(C)Cn1c(N)c(C(=O)COC(=O)[C@@H]2CCCN2C(=O)c2cccs2)c(=O)n(C)c1=O` gave HSV replic up inactive, PKD1 kinase inh -2, RGS16-Gao 97 and HSV replic up primary fold 0.94.
`COc1ccc(N/C(N)=N/c2nc(CSc3nnc(C)s3)cc(=O)[nH]2)cc1` gave HSV replic up inactive, PKD1 kinase inh 5, RGS16-Gao 101 and HSV replic up primary fold 0.65.
Screening CCOc1cc(/C=N/O)cc(Br)c1OC returned HSV replic up inactive, PKD1 kinase inh 3, GALR2 ag -1.4, RGS16-Gao 104 and HSV replic up primary fold 0.81.
Oc1[nH]c2ccccc2c1C=Nc1ccccc1 was read as HSV replic up inactive, RGS16-Gao 96 and HSV replic up primary fold 1.1.
For C=CCn1c(=O)c2c(C)c(C)sc2n2c(Nc3ccc(OC)cc3)nnc12 the results were HSV replic up inactive, PKD1 kinase inh -3, INS promoter inh 45, GALR2 ag 0.6, RGS16-Gao 105, INS promoter inh cell count 88 and HSV replic up primary fold 1.
For Cc1ccc(S(=O)(=O)N2CCCCC2C(=O)O)s1 (stereo unspecified) the results were HSV replic up inactive, PKD1 kinase inh 9, INS promoter inh 45, RGS16-Gao 98, INS promoter inh cell count 107 and HSV replic up primary fold 0.99.
`O=C(O)CC(SCC(=O)Nc1ccc(Cl)c(S(=O)(=O)N2CCOCC2)c1)C(=O)O` (stereo unspecified) gave HSV replic up inactive, RGS16-Gao 103 and HSV replic up primary fold 1.
Screening CCCSc1nc(C)c(CC(=O)OCC)c(=O)[nH]1 returned HSV replic up inactive, PKD1 kinase inh -2, GALR2 ag -2.2, RGS16-Gao 99 and HSV replic up primary fold 1.
`CN(Cc1ccccc1NCC(=O)Nc1ccccc1C#N)C1CCCCC1` gave HSV replic up inactive, PKD1 kinase inh -7, RGS16-Gao 103 and HSV replic up primary fold 0.91.
Screening Cc1nc(-c2ccccn2)nc(N2CCOCC2)c1Cl returned HSV replic up inactive, RGS16-Gao 100 and HSV replic up primary fold 0.93.
Screening COC(=O)c1c(NC(=O)CCCC(=O)O)sc2c1CCCCC2 returned HSV replic up inactive, PKD1 kinase inh -1, RGS16-Gao 102 and HSV replic up primary fold 1.2.
Screening CCc1ccc2oc(-c3ccc(N)cc3)nc2c1 returned HSV replic up inactive, PKD1 kinase inh -13, INS promoter inh 3, GALR2 ag -3.2, RGS16-Gao 93, INS promoter inh cell count 152 and HSV replic up primary fold 1.
`O=C1CSC(c2ccncc2)N1Cc1ccccc1` (stereo unspecified) gave HSV replic up inactive, PKD1 kinase inh -4, RGS16-Gao 100 and HSV replic up primary fold 0.97.
`Cc1cc(C)nc(SCCC(=O)Nc2ccccc2C)n1` gave HSV replic up inactive, PKD1 kinase inh -6, GALR2 ag -1.1, RGS16-Gao 113 and HSV replic up primary fold 1.1.
Cc1cccc(NC(=S)NCc2ccccn2)c1 was read as HSV replic up inactive, PKD1 kinase inh 3, INS promoter inh 29, GALR2 ag 0.0, RGS16-Gao 101, INS promoter inh cell count 106 and HSV replic up primary fold 0.8.
`CC(=O)NC1Sc2ccccc2N=C1c1ccccc1` (stereo unspecified) gave HSV replic up inactive, PKD1 kinase inh 19, GALR2 ag -0.9, RGS16-Gao 93 and HSV replic up primary fold 0.99.
`O=C(CC(Nc1ccccc1Cl)C(=O)OCC(=O)c1cccs1)c1ccccc1` (stereo unspecified) gave HSV replic up inactive, PKD1 kinase inh 0, INS promoter inh 3, GALR2 ag -2.7, RGS16-Gao 96, INS promoter inh cell count 109 and HSV replic up primary fold 0.82.

Brought forward from above: 2 compounds, followed by the next part.
`CC(=O)NC1Sc2ccccc2N=C1c1ccccc1` (stereo unspecified) gave HSV replic up inactive, PKD1 kinase inh 19, GALR2 ag -0.9, RGS16-Gao 93 and HSV replic up primary fold 0.99.
`O=C(CC(Nc1ccccc1Cl)C(=O)OCC(=O)c1cccs1)c1ccccc1` (stereo unspecified) gave HSV replic up inactive, PKD1 kinase inh 0, INS promoter inh 3, GALR2 ag -2.7, RGS16-Gao 96, INS promoter inh cell count 109 and HSV replic up primary fold 0.82.
`Fc1ccc(OCc2nn3c(Cn4nnc5ccccc54)nnc3s2)cc1` gave HSV replic up inactive, PKD1 kinase inh -11, GALR2 ag -0.1, RGS16-Gao 100 and HSV replic up primary fold 1.1.
CC(NC(=S)Nc1ccc(F)cc1)C(c1cccs1)N1CCOCC1 (stereo unspecified) was read as HSV replic up inactive, PKD1 kinase inh -8, RGS16-Gao 108 and HSV replic up primary fold 1.1.
`Cn1c(N)c(C(=O)COC(=O)CCCOc2ccc(Cl)cc2Cl)c(=O)n(C)c1=O` gave HSV replic up inactive, PKD1 kinase inh 2, RGS16-Gao 108 and HSV replic up primary fold 0.95.
`CCOc1cccc(C(=O)Nc2nc(-c3ccc(S(=O)(=O)N4CCOCC4)cc3)cs2)c1` gave HSV replic up inactive, PKD1 kinase inh -7, GALR2 ag 0.7, RGS16-Gao 106 and HSV replic up primary fold 0.93.
Cc1ccc(NC(=O)Nc2cccc(C)n2)c(C)c1 was read as HSV replic up inactive, RGS16-Gao 96 and HSV replic up primary fold 1.2.
O=[N+]([O-])c1cccc(/C=N/Nc2nnc(-c3ccccc3)c(-c3ccccc3)n2)c1 was read as HSV replic up inactive, PKD1 kinase inh -8, GALR2 ag -1.8, RGS16-Gao 95 and HSV replic up primary fold 0.97.
O=C(NCC(=O)N(Cc1ccco1)C(C(=O)NC1CCCC1)c1cccnc1)c1cccs1 (stereo unspecified) was read as HSV replic up inactive, PKD1 kinase inh 4, INS promoter inh -33, GALR2 ag -2.3, RGS16-Gao 119, INS promoter inh cell count 94 and HSV replic up primary fold 1.2.
Cc1c(-c2ccccc2)[n+](=O)c(-c2ccco2)c(C)n1[O-] was read as HSV replic up inactive, PKD1 kinase inh 1, INS promoter inh 45, GALR2 ag -2.2, RGS16-Gao 100, INS promoter inh cell count 39 and HSV replic up primary fold 0.88.
`Cc1ccc(S(=O)(=O)N(C)C)cc1NC(=O)COC(=O)CCC(=O)c1cccs1` gave HSV replic up inactive, PKD1 kinase inh -2, INS promoter inh 11, RGS16-Gao 98, INS promoter inh cell count 169 and HSV replic up primary fold 0.94.
Cc1noc(NS(=O)(=O)c2ccc(NC(=O)c3cnc4scc(C)n4c3=O)cc2)c1C was read as HSV replic up inactive, PKD1 kinase inh -4, GALR2 ag -0.6, RGS16-Gao 94 and HSV replic up primary fold 0.96.
`Cc1cc(C)c(C)c(N=Nc2nc3ccccc3n2C)c1C` gave HSV replic up inactive, PKD1 kinase inh -4, INS promoter inh 0, GALR2 ag -1.7, RGS16-Gao 104, INS promoter inh cell count 105 and HSV replic up primary fold 0.81.
For O=C1c2ccccc2C(=O)N1C/C=C/c1ccccc1 the results were HSV replic up inactive, PKD1 kinase inh 1, INS promoter inh 21, GALR2 ag 0.5, RGS16-Gao 105, INS promoter inh cell count 64 and HSV replic up primary fold 1.
CC(=O)c1cc(NC(=O)c2cccc(C(F)(F)F)c2)c(=O)oc1C was read as HSV replic up inactive, PKD1 kinase inh -10, RGS16-Gao 99 and HSV replic up primary fold 0.92.
For O=C(NC1CC1)C1=C[C@H](C2CC2)C[C@H](OCCCCO)O1 the results were HSV replic up inactive, PKD1 kinase inh 13, RGS16-Gao 106 and HSV replic up primary fold 0.86.
COc1ccc(CNC(=O)C(C)NC(=O)c2cc3ccccc3o2)cc1 (stereo unspecified) was read as HSV replic up inactive, PKD1 kinase inh 0, INS promoter inh -58, GALR2 ag -0.9, RGS16-Gao 90, INS promoter inh cell count 100 and HSV replic up primary fold 0.99.
Screening COc1ccc2c(c1)[N+](C)(C)C(C)(C)C=C2C returned HSV replic up inactive, PKD1 kinase inh 1, RGS16-Gao 101 and HSV replic up primary fold 1.1.
